HSV replic up – increases HSV replication in cells | actives 0.005% (n = 220,000) | maximum fold increase | HSV replication augmentation in cells, fold increase;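 active means peak rise of 1.5-fold or more in the series; inconclusive means self-fluorescent or not available for retest; tested in PC3 cells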;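 further: first round at 10 µM; read as green reporter fluorescence; hits show the peak of a series up to 25 µM; 1 = signal of infected wells without compound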
RGS16-Gao HTS – modulates binding between human RGS16 and Galphao; O15492+P09471; bead-based flow cytometry RGS16-Galphao binding, fluorescence; actives lie on both sides; binding response (% of control), % at 10 µM; actives 0.38% (n = 220,000); AID 1441;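 active means below 25% or above 175%, edge rows of some plates excepted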;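 further: Galphao activated by GDP with aluminum fluoride before binding; 100% = wells without compound and 0% = beads without RGS; some results beyond the cut were filed as inactive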
Target sequence (O15492 whole entry, looked up): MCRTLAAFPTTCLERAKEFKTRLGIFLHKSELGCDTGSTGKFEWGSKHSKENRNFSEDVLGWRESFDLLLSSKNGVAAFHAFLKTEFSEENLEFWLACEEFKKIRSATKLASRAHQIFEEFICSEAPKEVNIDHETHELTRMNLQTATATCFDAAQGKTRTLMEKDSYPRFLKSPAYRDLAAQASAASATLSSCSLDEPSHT
Target sequence (P09471 whole entry, looked up): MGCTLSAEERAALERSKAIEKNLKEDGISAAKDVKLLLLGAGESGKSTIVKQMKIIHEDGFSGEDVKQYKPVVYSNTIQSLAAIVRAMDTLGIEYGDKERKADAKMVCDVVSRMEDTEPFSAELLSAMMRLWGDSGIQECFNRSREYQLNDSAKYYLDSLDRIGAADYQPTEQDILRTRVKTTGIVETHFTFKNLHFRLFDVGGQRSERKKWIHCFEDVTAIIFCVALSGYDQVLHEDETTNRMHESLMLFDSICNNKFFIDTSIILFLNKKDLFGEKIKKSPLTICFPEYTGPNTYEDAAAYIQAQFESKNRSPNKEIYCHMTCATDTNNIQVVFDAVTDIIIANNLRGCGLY
PKD1 kinase inh – PKD1 (human) kinase inhibition; PKD1 kinase fluorescence polarization assay; Q15139; inhibition, %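 (about 10 µM by stock and volumes)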; actives 0.056% (n = 200,000); AID 797;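 active means inhibition of 50% or more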;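 further: controls were vehicle for no effect and a reference inhibitor for full effect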
Insulin prom inh – TRM-6 insulin promoter activity inhibition. actives 0.9% (n = 130,000). inhibition, % at 2 µM. TRM-6 cells (human fetal islet line), insulin promoter-eGFP reporter, imaging; reporter expression induced with tamoxifen;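 active means inhibition above the mean plus 3 SD, with well images judged a real hit on visual review, cut at about 60% in these data, passing the limit was not always enough; inconclusive means inhibition over the cutoff but images rejected on review; inactive means inhibition not above the cutoff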
GALR2 agonist – activates the human galanin receptor 2; GALR2-expressing cells, agonist activation read-out; O43603; activation, %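 (tested at 5 µM)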; AID 803; actives 0.48% (n = 140,000);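 active means above mean plus 3 SD of all compounds, about 5% in these data, not always enough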;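 further: 0% = vehicle buffer wells and 100% = reference agonist at full effect; tested in CHO reporter cells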
Target sequence (O43603 whole entry, looked up): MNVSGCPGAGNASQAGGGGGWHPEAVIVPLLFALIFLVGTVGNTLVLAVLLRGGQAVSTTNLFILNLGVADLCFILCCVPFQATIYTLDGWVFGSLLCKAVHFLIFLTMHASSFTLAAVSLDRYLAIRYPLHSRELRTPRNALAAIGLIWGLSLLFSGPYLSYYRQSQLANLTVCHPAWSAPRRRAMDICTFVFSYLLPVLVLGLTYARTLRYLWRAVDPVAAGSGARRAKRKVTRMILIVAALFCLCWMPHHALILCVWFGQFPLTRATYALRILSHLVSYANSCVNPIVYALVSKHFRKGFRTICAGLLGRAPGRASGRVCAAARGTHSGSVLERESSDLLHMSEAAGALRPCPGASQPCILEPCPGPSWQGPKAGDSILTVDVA
Insulin prom inh cell count – second read-out of Insulin prom inh, no call of its own (marks repeat the call); normalized cell count, %; measured here: cell count, toxicity; reference of the scale not given here;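 cells exposed to compound for 48 h; stained nuclei by imaging scaled within each plate; lower means fewer cells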
HSV replic up primary fold – further read-out of HSV replic up, marked with its call; fold increase; compound at 10 µM; measured here: primary screen fold increase 10 uM; tested in PC3 cells;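 GFP signal in the first replicate; 1 = infected wells without compound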
* = called active by the depositor; i = inactive; ? = inconclusive; . = no result given. No enrichment for hits; any-hit rate near 1.3%.

compound | HSV replic up | HSV replic up primary fold | RGS16-Gao HTS | PKD1 kinase inh | Insulin prom inh | Insulin prom inh cell count | GALR2 agonist
COc1ccc(/C=N\Nc2ccc([N+](=O)[O-])cc2)c(C(=O)O)c1OC | i | 1.1 | 97 | . | . | . | .
COc1ccccc1NCC(=O)NNC(C)C(=O)Nc1cccc(Cl)c1 (stereo not given) | i | 1.1 | 107 | -7 | -11 | 134 | .
CC1(C)CC(=O)C(C(=O)/C=C/c2ccco2)C(=O)C1 | i | 1.1 | 220 | 4 | 20 | 99 | .
Cc1cccc(NC(=O)c2nc(-c3ccccc3)n(-c3ccccc3)n2)c1C | i | 1 | 102 | -4 | -11 | 109 | -1.7
O=C(Nc1ccc2c(c1)OCCO2)C1CC1c1ccccc1 (stereo not given) | i | 1 | 99 | -10 | -26 | 182 | -0.5
CC(=O)Oc1ccc2c(c1)cc(C)n2C | i | 0.72 | 124 | -4 | -69 | 87 | -3.3
COc1ccc(CC2(CO)CCN(S(=O)(=O)N(C)C)CC2)cc1 | i | 0.93 | 114 | -3 | 35 | 131 | .
CC(=O)OC[C@H]1O[C@@H](n2ccc(=O)[nH]c2=S)C(OC(C)=O)C1OC(C)=O (stereo not given in full) | i | 0.75 | 96 | 0 | 64 | 101 | -1.6
CCOc1ccccc1NC(=O)CN(c1cc(C)cc(C)c1)S(=O)(=O)c1c(C)noc1C | i | 0.85 | 102 | 5 | . | . | -3.0
CCn1c(SCc2ccc(Cl)cc2)nc2nc3c(cc2c1=O)CCCC3 | i | 1.1 | 97 | -9 | 26 | 91 | -0.5
CCc1cc(C(=O)c2ccc(OC)cc2)c(NC(=O)CN2CCCC2)s1 | i | 1 | 89 | . | . | . | .
CC(=O)Nc1cccc(OCCCOc2ccc([N+](=O)[O-])cc2)c1 | i | 0.99 | 100 | . | . | . | .
O=C(O)Cn1cnc2c(=S)nc[nH]c21 | i | 0.96 | 95 | . | . | . | .
CN(C(=O)c1ccc2c(c1)C(=O)N(CCC1=CCCCC1)C2=O)C1CCCCC1 | i | 0.88 | 102 | 6 | . | . | -1.3
Cc1ccc(-c2csc3nc(CN(C)Cc4ccccc4)[nH]c(=O)c23)cc1 | i | 0.99 | 85 | -2 | . | . | .
O=C(OCCNc1ncc(C(F)(F)F)cc1Cl)c1ccc(S(=O)(=O)N2CCOCC2)cc1 | i | 0.78 | 103 | -8 | 45 | 93 | -0.7
COc1ccc(NC(C)=O)c2nc(C)c(C)nc12 | i | 0.96 | 101 | -3 | 0 | 102 | -0.8
O=C(NCc1ccco1)Nc1ccccc1Cl | i | 0.99 | 95 | 7 | 42 | 65 | -3.9
O=[N+]([O-])c1cccc(-c2cn3ccccc3n2)c1 | i | 0.93 | 109 | -5 | 60 | 138 | .
CCCn1c(SCC(=O)N2c3ccccc3Sc3ccccc32)nc2ccccc21 | i | 0.97 | 102 | 7 | 27 | 126 | -2.3
Cc1cc(C)cc(NC(=O)CCN2CCCC2)c1 | i | 0.91 | 102 | 1 | . | . | .
O=C(Nc1ccc(C(=O)N2CCOCC2)cc1)c1cc(-c2cccnc2)nc2ccc(Cl)cc12 | i | 0.67 | 103 | -1 | . | . | .
COc1ccccc1N1C(=O)C2C(c3ccccc3F)NN(C(=O)c3ccc(C)cc3)C2C1=O (stereo not given) | . | . | . | -8 | 52 | 97 | -2.0
COc1cc(OC)cc(C(=O)NCC(=O)OCC(=O)NC(C)(C)C)c1 | i | 0.92 | 107 | 1 | . | . | -1.9
CCCC(=O)NC(=S)Nc1cccc(NC(=O)c2ccccc2Cl)c1 | i | 1.1 | 104 | 3 | -6 | 174 | 0.1
COc1ccccc1NS(=O)(=O)c1cccc(NC(=O)c2sc3ccccc3c2Cl)c1 | i | 1 | 96 | -1 | . | . | .
COc1ccc(CNc2oc(-c3cccc4ccccc34)nc2P(=O)(OC)OC)cc1 | i | 0.87 | 105 | -3 | . | . | .
NCCCCCc1nnc(SCc2cccc(Cl)c2)o1 | i | 1.2 | 108 | -1 | . | . | -1.7
Cc1cc(O)c(C(=O)Cc2csc(C)n2)c(O)c1 | i | 0.8 | 113 | -8 | -18 | 157 | .
Cc1cc(C)nc(Nc2n[nH]c(C)n2)n1 | i | 1 | 107 | -8 | . | . | .

Of the compounds above, these contain a halogen:
compound | HSV replic up | HSV replic up primary fold | RGS16-Gao HTS | PKD1 kinase inh | Insulin prom inh | Insulin prom inh cell count | GALR2 agonist
COc1ccccc1NCC(=O)NNC(C)C(=O)Nc1cccc(Cl)c1 (stereo not given) | i | 1.1 | 107 | -7 | -11 | 134 | .
CCn1c(SCc2ccc(Cl)cc2)nc2nc3c(cc2c1=O)CCCC3 | i | 1.1 | 97 | -9 | 26 | 91 | -0.5
O=C(OCCNc1ncc(C(F)(F)F)cc1Cl)c1ccc(S(=O)(=O)N2CCOCC2)cc1 | i | 0.78 | 103 | -8 | 45 | 93 | -0.7
O=C(NCc1ccco1)Nc1ccccc1Cl | i | 0.99 | 95 | 7 | 42 | 65 | -3.9
O=C(Nc1ccc(C(=O)N2CCOCC2)cc1)c1cc(-c2cccnc2)nc2ccc(Cl)cc12 | i | 0.67 | 103 | -1 | . | . | .
COc1ccccc1N1C(=O)C2C(c3ccccc3F)NN(C(=O)c3ccc(C)cc3)C2C1=O (stereo not given) | . | . | . | -8 | 52 | 97 | -2.0
CCCC(=O)NC(=S)Nc1cccc(NC(=O)c2ccccc2Cl)c1 | i | 1.1 | 104 | 3 | -6 | 174 | 0.1
COc1ccccc1NS(=O)(=O)c1cccc(NC(=O)c2sc3ccccc3c2Cl)c1 | i | 1 | 96 | -1 | . | . | .
NCCCCCc1nnc(SCc2cccc(Cl)c2)o1 | i | 1.2 | 108 | -1 | . | . | -1.7

(list continues)
compound | HSV replic up | HSV replic up primary fold | RGS16-Gao HTS | PKD1 kinase inh | Insulin prom inh | Insulin prom inh cell count | GALR2 agonist
COCCn1cc(C(=O)NCCCN2CCC(C)CC2)c2c3ccccc3n(C)c2c1=O | i | 0.95 | 103 | -1 | 17 | 123 | -0.5
O=C(CCSCCC(=O)Nc1ccccc1F)Nc1ccccc1F | i | 1.1 | 77 | -5 | -7 | 79 | -1.7
CCOc1ccc(C=Nc2cccc3ncccc23)cc1 | i | 1.1 | 99 | -3 | 18 | 52 | .
COc1ccc(OC)c(C2C3=C(CC(C)(C)CC3=O)Nc3nnnn32)c1 (stereo not given) | i | 0.98 | 102 | -8 | 67 | 89 | -0.2
CC(C(=O)Nc1cccnc1)N1C(=O)c2ccccc2C1=O (stereo not given) | i | 0.91 | 89 | 7 | . | . | -1.5
CC(=O)Nc1ccc2c(c1)OCCOCCOc1cc(NC(C)=O)ccc1OCCO2 | i | 0.98 | 102 | . | . | . | .
COc1ccc(-c2cnnn2-c2ccc(N)cc2)cc1OC | i | 0.97 | 108 | -8 | -150 | 72 | -2.8
COc1ccc(S(=O)(=O)NCC(c2cccnc2)N2CCN(C)CC2)cc1C (stereo not given) | i | 0.89 | 113 | 5 | . | . | -1.9
COC(=O)c1ccc(C(=O)NC(=S)Nc2ccc3nc(SC)sc3c2)cc1 | i | 0.93 | 112 | 0 | . | . | -1.6
COc1ccc(N(CC(=O)NCCc2ccc(Cl)cc2)S(=O)(=O)c2c(C)[nH]c(=O)[nH]c2=O)cc1 | . | . | 80 | -2 | -43 | 53 | .
N#CCCN(Cc1ccccc1)C(=S)Nc1ccccc1 | i | 0.97 | 107 | -5 | -15 | 71 | -0.9
COc1ccc(N2C(=O)CSC(c3ccccc3)C2=O)cc1 (stereo not given) | i | 0.96 | 103 | -3 | 10 | 145 | .
COc1cc(OC)cc(-c2nc3nc(C)c(CCC(=O)O)c(C)n3n2)c1 | i | 0.73 | 100 | -2 | -10 | 126 | -4.7
O=C(Nc1ccsc1C(=O)N1CCCCCC1)c1ccccc1 | i | 0.84 | 112 | 11 | 6 | 87 | -1.4
CC(=O)Nc1ccc(N2CCCC(C)C2)c([N+](=O)[O-])c1 (stereo not given) | i | 0.95 | 103 | 7 | . | . | .
O=S(=O)(c1ccc(-c2ccon2)s1)N1CCN(c2ccccn2)CC1 | i | 1 | 86 | . | . | . | .
Clc1cccc(N=C2NN=C(c3ccc4c(c3)OCCO4)CS2)c1 | i | 0.95 | 100 | 5 | 4 | 157 | -3.1
CC(C)C(OC(=O)CCCC(=O)Nc1nccs1)C(=O)NC1CCCCC1 (stereo not given) | i | 1 | 104 | -6 | . | . | .
COc1cc(C(=O)Nc2ccc(O)cc2C(=O)O)ccc1OC(C)=O | i | 0.8 | 105 | 0 | . | . | -1.3
C=CCNC(=O)c1ccccc1NC(=O)c1ccc(Cl)c(S(=O)(=O)Nc2cccc(C)c2C)c1 | i | 0.85 | 95 | -8 | -40 | 108 | 0.5
CCCCN(C)CCCNC(=O)CS(=O)Cc1nc(-c2ccc(OC)c(OC)c2)oc1C (stereo not given) | i | 0.8 | 105 | -16 | 31 | 127 | -0.6
COc1ccccc1NC(=O)Nc1ccc(Cc2ccncc2)cc1 | i | 0.99 | 96 | -4 | . | . | .
CC(=O)N1CCN(C(=O)CCC(=O)O)CC1 | i | 1 | 103 | . | . | . | .
C=C(C)CNC(=S)Nc1nc2c(cc1C(=O)OCC)CCCC2 | i | 0.85 | 101 | -6 | -41 | 129 | -0.3
C/C=C/c1ccc(OCCSc2nc(C)cc(=O)[nH]2)c(OC)c1 | i | 1.2 | 102 | -4 | . | . | 0.0
Cc1ccc(C)c(N2CCN(C(=O)CNS(=O)(=O)c3cccs3)CC2)c1 | i | 0.93 | 131 | 3 | -29 | 77 | -1.8
CN(C)c1ccc(CNn2cnnc2SCc2ccc(F)cc2)cc1 | i | 0.98 | 98 | 2 | 6 | 91 | -1.3
CC(=O)c1sc(C(=O)O)c(-c2ccco2)c1-c1ccco1 | i | 0.99 | 104 | . | . | . | .
NC(=O)CSc1cn(CCNC(=O)c2cccs2)c2ccccc12 | i | 0.94 | 103 | . | . | . | .
COc1cc2oc(=O)c3c(c2cc1OCC(=O)c1c(C)n(C)c2ccccc12)CCCC3 | i | 0.91 | 30 | 1 | . | . | -1.0

Some of these compounds in order of number of heavy atoms, lowest first.
compound | HSV replic up | HSV replic up primary fold | RGS16-Gao HTS | PKD1 kinase inh | Insulin prom inh | Insulin prom inh cell count | GALR2 agonist
CC(=O)N1CCN(C(=O)CCC(=O)O)CC1 | i | 1 | 103 | . | . | . | .
CC(=O)c1sc(C(=O)O)c(-c2ccco2)c1-c1ccco1 | i | 0.99 | 104 | . | . | . | .
COc1ccccc1NC(=O)Nc1ccc(Cc2ccncc2)cc1 | i | 0.99 | 96 | -4 | . | . | .

Later entries
compound | HSV replic up | HSV replic up primary fold | RGS16-Gao HTS | PKD1 kinase inh | Insulin prom inh | Insulin prom inh cell count | GALR2 agonist
Cn1cccc1/C=C1\CC(C(C)(C)C)C/C(=C\c2cccn2C)C1=O (stereo not given) | ? | . | 92 | -11 | -14 | 129 | -2.8
COc1ccc(-c2nc(SCc3ccccc3)n(C(=O)c3ccco3)n2)cc1 | i | 0.69 | 100 | -3 | . | . | -0.6
CC(C)CSc1n[nH]c(N)n1 | i | 0.97 | 108 | -1 | . | . | .
O=C(O)CN1C(=O)C2C3CC(C2C1=O)C1C(c2ccc(Cl)cc2)c2sc(=O)[nH]c2SC31 (stereo not given) | i | 1.1 | 98 | -6 | 43 | 92 | .
CCn1c(SCC(=O)N/N=C/C=C\c2ccccc2[N+](=O)[O-])nnc1-c1ccccc1 | i | 0.78 | 101 | 0 | -158 | 109 | -3.6
Cc1cc(Br)ccc1OCCCCN1CCCCC1 | i | 0.97 | 178 | 1 | . | . | .
CC(NS(=O)(=O)c1ccc(Cl)c(Cl)c1)C(=O)OCC(=O)Nc1ccc2c(c1)OCO2 (stereo not given) | i | 1 | 105 | -2 | . | . | .
C#CCCOC(=O)Nc1ccccc1 | i | 1.1 | 78 | . | . | . | .
Nc1ncnc(NCc2ccccc2)c1[N+](=O)[O-] | i | 0.76 | 108 | -4 | -15 | 111 | -0.6
CCOC(=O)c1c(-c2ccc(C)cc2)csc1/N=C(\C)C1=C(O)c2ccccc2C1=O | i | 0.93 | 101 | . | . | . | .
CCOC(=O)c1c(-c2cccs2)csc1NC(=O)CN1CC(C)OC(C)C1 (stereo not given) | i | 0.89 | 101 | 3 | -14 | 103 | -3.2
CC(C)CNC(=O)NC(=O)COc1ccc(C=O)cc1 | . | . | 74 | -12 | -7 | 117 | -0.1
O=C(Nc1cccc2cccnc12)c1cccc2ccccc12 | i | 1.1 | 108 | -7 | 36 | 78 | -3.0

Bioassay records: PubChem BioAssay, several laboratories
